Polio RdRp inh: inhibitors of poliovirus RNA polymerase binding and polymerization. hit rate 0.66% among 150,000. % elongation, % (compound at 16.7 µg/mL). P03300. poliovirus polymerase elongation, fluorescence polarization; active compounds read low; in the data active = % elongation below about 90%; also: some results filed as inactive read as strong as hits
Target sequence (P03300 1749-2209 limits assumed): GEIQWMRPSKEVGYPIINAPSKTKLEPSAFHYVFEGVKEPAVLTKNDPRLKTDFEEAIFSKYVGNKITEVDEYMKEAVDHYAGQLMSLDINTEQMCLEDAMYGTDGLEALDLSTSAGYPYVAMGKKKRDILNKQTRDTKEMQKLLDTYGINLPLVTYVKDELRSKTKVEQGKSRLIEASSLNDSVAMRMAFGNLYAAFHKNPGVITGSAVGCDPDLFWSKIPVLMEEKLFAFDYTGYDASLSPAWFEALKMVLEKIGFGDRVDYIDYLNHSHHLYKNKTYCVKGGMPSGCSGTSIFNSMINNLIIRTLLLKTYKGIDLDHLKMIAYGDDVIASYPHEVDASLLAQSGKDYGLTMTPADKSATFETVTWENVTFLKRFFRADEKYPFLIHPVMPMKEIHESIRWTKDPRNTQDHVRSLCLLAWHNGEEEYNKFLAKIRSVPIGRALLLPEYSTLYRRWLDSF
Polio RdRp inh intensity: further read-out of Polio RdRp inh, marked with its call; % elongation; measured here: total intensity read-out; formula for this scale not given here;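 total fluorescence in place of polarization; lower means less elongation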
* = called active by the depositor. Some of the compounds tested; count on the stated rates, not on these rows.

SMILES	Polio RdRp inh intensity	Polio RdRp inh
COc1ccc(CCNC(=O)c2ccc3c(c2)CCN3S(=O)(=O)c2ccc(Cl)cc2)cc1	110	104
COC(=O)CNC(=O)C(Cc1ccccc1)NS(=O)(=O)c1ccc2c(c1)c(=O)n(C)c(=O)n2C (stereo unspecified)	109	107
COc1ccc(OC)c(CNC(=O)c2cc(=O)[nH]c3ccc(S(=O)(=O)N4CCCCC4C)cc23)c1 (stereo unspecified)	117	114
CC(=O)N1CCCc2cc(S(=O)(=O)N3CCCC(C(=O)N4CCN(c5cc(C)ccc5C)CC4)C3)ccc21 (stereo unspecified)	111	112
CCOc1cc(CNC(=O)C(NS(=O)(=O)c2cccs2)C(C)C)cc(OCC)c1OCC (stereo unspecified)	109	106
Cc1ccc(C)c(N2CCN(Cc3csc(C)c3)CC2)c1	98	105
CCOc1ccc(-c2c(C)nn3c(C)c(C(=O)NCCc4ccccc4)cnc23)cc1OCC	113	111
Cc1ccc2nc(COc3cccc(NC(=O)COc4ccccc4F)c3)cc(=O)n2c1	104	112
FC(F)(F)c1cccc(N2CCN(Cc3nnc(-c4ccc5c(c4)OCO5)o3)CC2)c1	110	107
COc1cccc(NC(=O)CSc2nc3c(oc4ccccc43)c(=O)n2Cc2ccco2)c1	107	104
Cc1cccc(NC(=O)N2CCN(C(=O)c3nsc4ccccc34)CC2)c1C	107	104
Cn1c(=O)oc2cc(S(=O)(=O)Nc3ccc(C(=O)O)cc3)ccc21	109	108
Cc1ccc(-n2nc(-c3ccc(F)cc3)c3cnc4cc5c(cc4c32)OCO5)cc1C	107	107
COc1cccc(NC(=O)Cn2c(=O)c3cccn3c3ccc(F)cc32)c1	104	107
CN1CCN(C(=O)c2cnn(-c3cccc(Cl)c3)c2C2CCN(C(=O)OC(C)(C)C)CC2)CC1	101	104

Next section
SMILES	Polio RdRp inh intensity	Polio RdRp inh
Cc1cccc(NC(=O)Cn2c(=O)n(Cc3ccc4c(c3)OCO4)c(=O)c3oc4ccccc4c32)c1C	113	110
Cc1noc(Cn2c(=O)c3cc4c(cc3n(CC(=O)Nc3ccc(C(C)C)cc3)c2=O)OCO4)n1	107	102
Cc1ccc2cccc(NC(=O)COc3cc(C)c(Cl)c(C)c3)c2n1	110	109
CCN(CC)c1ccc(NC(=O)CN2CCN(S(=O)(=O)c3cc(Cl)ccc3OC)CC2)cc1	100	104
CCc1cc(C(=O)NCc2ccccc2)no1	112	107
Cc1n[nH]c(C)c1S(=O)(=O)N(CC(=O)NC(C)c1ccccc1)c1ccc(C(C)C)cc1 (stereo unspecified)	110	108
Cc1ccc(-c2nc3n(n2)C(c2ccccc2C)C=C(c2ccc(Cl)cc2)N3)cc1 (stereo unspecified)	102	107
COc1ccc(Cl)cc1S(=O)(=O)Nc1cccc(-c2ccc(N3CCCC3)nn2)c1	108	107
Cc1ccc(-c2cn3nc(N4CCCC(C(=O)NCc5ccc(F)cc5)C4)sc3n2)cc1 (stereo unspecified)	109	110
CC1CCc2c(sc(NC(=O)c3cc4nc(-c5ccc(Cl)cc5)cc(C(F)(F)F)n4n3)c2C#N)C1 (stereo unspecified)	110	107
O=C(NC1CC(=O)N(c2ccc(F)cc2)C1)c1ccc2c(c1)OCO2 (stereo unspecified)	110	108
CCN(C(=O)c1cccn(Cc2ccccc2C)c1=O)c1ccccc1	107	113
Cc1ccccc1CSc1nc2c(sc3ccccc32)c(=O)n1CCCOC(C)C	110	113
CCn1cc2nc(SCc3ccc(C)cc3)n(CCc3ccccc3)c(=O)c2n1	105	102
CCOC(=O)c1scc(-c2ccc(C)cc2)c1S(=O)(=O)N1CCN(c2ccccc2F)CC1	101	107

(next part)
SMILES	Polio RdRp inh intensity	Polio RdRp inh
CN1c2ccc(Cl)cc2-c2nc(SCC(=O)NCc3ccccc3)ncc2S1(=O)=O	112	107
CCN(CC)CCCNC(=O)c1ccc(-c2nc(CN3CCc4ccccc43)c(C)o2)cc1	105	104
CCCn1ccc2c(OCC(=O)Nc3ccc(F)cc3F)cccc2c1=O	111	109
CCCOc1ccc(-c2cc(C(F)(F)F)c(C#N)c(SCCC(=O)O)n2)cc1	110	107
CCc1cccc(C)c1Nc1nn2c(=O)c3ccccc3nc2s1	98	97
Cc1c(Cl)cccc1NC(=O)C(=O)NCCc1csc(-c2cccc(F)c2)n1	108	107
Cc1ccc(CSc2nc(-c3ccccc3C)nc3c2Cc2c(CO)cnc(C)c2O3)cc1	109	111
O=C(Cn1c(=O)n(Cc2ccc3c(c2)OCO3)c(=O)c2oc3ccccc3c21)Nc1ccccc1F	105	111
CCN(CC)CCCNc1cc(-c2ccccc2)nc(C)n1	113	111
O=C(CSc1nc(-c2ccccc2)cc(=O)[nH]1)Nc1ccccc1F	103	98
Cc1ccc(Cl)cc1NC(=O)CN1C=NS(=O)(=O)c2ccccc21	108	103
CCOC(=O)c1ccccc1NS(=O)(=O)c1c(-c2ccc(C)cc2)csc1C(=O)OC	101	105
O=C(Cn1nnnc1-c1ccccc1F)Nc1ccc(F)c(F)c1	112	108
CCOC(=O)C1CCN(C(=O)Cn2c(=O)cc(C)c3c(C)nn(C)c32)CC1	106	110
CCC1CCCCN1CCCNC(=O)CN1C(=O)c2cccnc2Oc2ccc(C)cc21 (stereo unspecified)	105	107

The results go on.
SMILES	Polio RdRp inh intensity	Polio RdRp inh
Cc1ccc(Cn2cc(/C=C(/C#N)C(=O)Nc3cccc(Cl)c3)c3ccccc32)cc1	107	106
CCN(C(=O)c1cc2c(Cl)nc3ccccc3c2s1)c1cccc(Cl)c1	104	103
CCOc1ccc(CCNC(=O)CCSCc2ccc(Cl)cc2)cc1OCC	114	110
COc1cc(CNc2ccc3[nH]c(=O)[nH]c3c2)cc(Cl)c1OCc1ccccc1F	109	104
COc1ccc(-n2c3c(c(=O)[nH]c2=O)C(NC(C)=O)(C(F)(F)F)C(=O)N3)cc1 (stereo unspecified)	165	56
O=C(Cn1c(=O)nc(-c2ccccc2)c2ccccc21)Nc1cccc(C(F)(F)F)c1	95	104
Cc1ccc(NC(=O)Nc2nnc(N3CCCC3)s2)cc1	107	108
COc1ccc(N2CCN(c3oc(-c4ccccc4C)nc3S(=O)(=O)c3ccccc3)CC2)cc1	106	110
CC1CCC(NC(=O)CCc2cn(Cc3ccccc3Cl)c3ccccc23)CC1 (stereo unspecified)	108	100
CCCOc1ccccc1C(=O)Nc1ccc(-c2nc3ccc(C)cc3s2)cc1	107	103
CCc1ccc2occ(CC(=O)N(Cc3ccc(N(C)C)cc3)C3CCS(=O)(=O)C3)c2c1 (stereo unspecified)	124	122
Cc1ccc(NCc2cccn2-c2nnc(N3CCC(C(=O)NCCc4ccc(Cl)cc4)CC3)s2)cc1	110	108
Cc1cn2c(=O)cc(COc3cc(C)c(Cl)c(C)c3)nc2s1	106	111
CCOc1ccccc1C(=O)N(Cc1ccccc1F)C1CCS(=O)(=O)C1 (stereo unspecified)	100	101
CC1CCCCN1CC(=O)N1CCCc2c1c(=O)oc1ccc(OCc3ccccc3)cc21 (stereo unspecified)	99	100

New compounds follow
SMILES	Polio RdRp inh intensity	Polio RdRp inh
Cc1nc2ccc(S(=O)(=O)CCC(=O)Nc3ccc(C(C)C)cc3)cc2s1	98	101
C#CCn1c(/C=C/c2ccc(Cl)cc2)nc2ccccc21	106	106
Cc1ccccc1Cc1c(C)nc2nc(SCC(=O)NCCc3ccc(Cl)cc3)nn2c1C	110	104
CCOC(=O)c1cccc(NC(=O)Cn2ncc3c4ccccc4n(Cc4ccccc4)c3c2=O)c1	112	108
COc1ccc(N2CCN(C(=O)c3cnc(N4CCCC4)nc3C)CC2)cc1	115	109
COc1cccc(C(=O)Nc2ccccc2SCc2cc(=O)c3cccc(C)c3[nH]2)c1	106	104
CCOc1ccc(OCC)c(NS(=O)(=O)c2c(C(=O)N3CCCCCC3)c(C)n(C)c2C)c1	110	101
Cc1ccc(CN2C(=O)c3ccccc3Sc3ccc(C(=O)OCc4ccco4)cc32)cc1	106	106
CNC(=O)CSc1nnc(NC(=O)Nc2ccccc2)s1	101	110
COc1cc(/C=C/c2nc(C#N)c(NCCc3ccccc3)o2)cc(OC)c1OC	115	111
Cc1noc(/C=C/c2ccccc2F)c1S(=O)(=O)N1CCC(C(=O)NCC(C)c2ccccc2)CC1 (stereo unspecified)	105	109
Cc1csc2nc(-c3cccc(NC(=O)c4ccccc4Cl)c3)cn12	103	103
O=C(CN1C(=O)COc2ccc(S(=O)(=O)NC3CCCC3)cc21)NCc1ccccc1Cl	107	107
CCCNC(=O)CCC(=O)N1Cc2cccc(OC)c2Oc2ncccc21	106	108
Cc1cccc(NC(=O)c2ccc(Cn3nc(N4CCN(c5ccccc5)CC4)ccc3=O)o2)c1C	111	104

Next part.
SMILES	Polio RdRp inh intensity	Polio RdRp inh
FC(F)(F)c1cccc(N2CCN(c3ncnc4c3nc3n4CCCC3)CC2)c1	115	107
O=S(=O)(NCc1cccc(Br)c1)c1ccc(-c2cc(C(F)(F)F)on2)s1	108	111
Cc1ccccc1-c1noc(CSc2nnc(Cc3ccccc3)n2-c2ccc(F)cc2)n1	102	102
COc1cc(-c2nnc(SCCOc3ccc(C)c(Cl)c3)o2)cc(OC)c1OC	95	107
Cc1ccc(CNC(=O)c2cn(C)c3ccc(S(=O)(=O)N(C)C4CCCCC4)cc3c2=O)cc1	108	105
Cc1cccc(N2CCN(C(=O)c3c(C)oc4ncnc(N5CCCCC5)c34)CC2)c1C	108	104
COc1ccc(CNC(=O)CN(c2ccc(C)cc2)S(=O)(=O)c2c(C)noc2C)cc1	103	105
Cc1ccc(NS(=O)(=O)c2ccc3nc(-c4ccccc4)[nH]c3c2)c(Br)c1	112	108
COc1ccc(-c2cc(-c3ccccc3)nc3c2COc2ccc(F)cc2-3)cc1	105	101
COc1ccc(CCNc2nc(SCc3cccc(Cl)c3)nc3ccccc23)cc1OC	107	106
CCCCCSc1nc2sc3c(c2c(=O)n1-c1ccc(OC)cc1)CCN(C(C)=O)C3	101	102
COc1ccc(-c2nc3c(C#N)c[nH]n3c2NC2CCCCC2)cc1	111	104
Cc1ccc(NC(=O)Cn2c(=O)n(CCC(=O)N3CCc4ccccc4C3)c(=O)c3ccccc32)cc1	111	106
Cc1ccc(CSc2nc3cccnc3n2Cc2ccc(C(=O)NCCc3ccccc3)cc2)cc1	113	114
CC(=O)N1c2ccc(S(=O)(=O)NCCc3cccc(C)c3)cc2CC1C (stereo unspecified)	104	105

The list continues.
SMILES	Polio RdRp inh intensity	Polio RdRp inh
COCCNC(=O)CCSc1nc(-c2ccc(OC)cc2)cc(C(F)(F)F)n1	105	102
Cc1nn(C(C)C(=O)NCc2cccc(F)c2)c(=O)c2c1sc1ccccc12 (stereo unspecified)	112	111
CCOc1c(CNCCSc2nnnn2C)cccc1OC	107	104
COC(=O)c1c(C)oc2ccc(N(C(=O)Oc3ccccc3)S(=O)(=O)c3ccc(C(C)(C)C)cc3)cc12	116	104
COc1ccc(CC(=O)NCc2ccc3c(c2)CCN3C(C)=O)cc1	106	108
CCOc1ccc(C(=O)NCCc2csc(-c3ccc(C(F)(F)F)cc3)n2)cc1OCC	109	106
CCOc1ccc(NC(=O)c2ccc(CN3C(=O)C(C)=C(c4ccc(C)cc4)S3(=O)=O)cc2)cc1	106	101
COc1ccc(NC(=O)CSc2nnc(NC(=O)Nc3ccccc3)s2)c(OC)c1	111	111
O=C(c1ccccc1Cl)N1c2ncnn2C2(CCCCC2)[C@@H]2CCCC[C@@H]21	107	99
CCc1cccc(CC)c1NC(=O)CCS(=O)(=O)c1ccc(Br)cc1	92	99
Cc1ccc2oc(-c3cc(NC(=O)/C=C/c4ccco4)ccc3Cl)nc2c1	112	105
Cc1cccc(C)c1NC(=O)CCCn1c(=O)c2cccn2c2ccccc21	113	113
CC(C)CN(CCNC(=O)c1cn(C)c2ccc(S(=O)(=O)N3CCOCC3)cc2c1=O)CC(C)C	109	107
COc1cc(OC)c(NC(=O)C(C)n2nc(-c3ccc(C)c(C)c3)ccc2=O)cc1Cl (stereo unspecified)	110	105
COc1ccc(OC)c(NC(=O)Cc2coc3ccc(C(C)C)cc23)c1	111	112

Among those listed so far, eight have an NH in an aromatic ring:
SMILES	Polio RdRp inh intensity	Polio RdRp inh
COc1ccc(OC)c(CNC(=O)c2cc(=O)[nH]c3ccc(S(=O)(=O)N4CCCCC4C)cc23)c1 (stereo unspecified)	117	114
Cc1n[nH]c(C)c1S(=O)(=O)N(CC(=O)NC(C)c1ccccc1)c1ccc(C(C)C)cc1 (stereo unspecified)	110	108
O=C(CSc1nc(-c2ccccc2)cc(=O)[nH]1)Nc1ccccc1F	103	98
COc1cc(CNc2ccc3[nH]c(=O)[nH]c3c2)cc(Cl)c1OCc1ccccc1F	109	104
COc1ccc(-n2c3c(c(=O)[nH]c2=O)C(NC(C)=O)(C(F)(F)F)C(=O)N3)cc1 (stereo unspecified)	165	56
COc1cccc(C(=O)Nc2ccccc2SCc2cc(=O)c3cccc(C)c3[nH]2)c1	106	104
Cc1ccc(NS(=O)(=O)c2ccc3nc(-c4ccccc4)[nH]c3c2)c(Br)c1	112	108
COc1ccc(-c2nc3c(C#N)c[nH]n3c2NC2CCCCC2)cc1	111	104

(continued)
SMILES	Polio RdRp inh intensity	Polio RdRp inh
NC(=O)CSc1oc(-c2ccco2)nc1S(=O)(=O)c1ccc(Cl)cc1	102	103
COc1cccc(NC(=O)CSc2nnc(COc3ccc(Cl)cc3)o2)c1	108	107
COC(=O)c1cc2occc2n1Cc1nc(-c2ccccc2)oc1C	114	109
Cn1nc(C(=O)N2CCN(c3cccc(Cl)c3)CC2)c2c1-c1ccccc1S(=O)(=O)C2	115	111
COc1ccc(-c2nc(Cn3c(SCc4cccc(C(F)(F)F)c4)nc4cccnc43)c(C)o2)cc1OC	110	110
COc1ccccc1NC(=O)c1cc2c([nH]c1=O)CC(C)(C)CC2=O	112	108

From PubChem BioAssay
